High-throughput results as filed in PubChem.
RanGTP-Impb inh: inhibitors of RanGTP-importin-beta interaction, primary screen, biochemical, FRET, CFP-Ran, YFP-importin-beta, homogeneous. Ran GTPase (GTP-bound) - importin-beta complex. cell-free CFP-Ran/YFP-importin-beta FRET ratio. inhibition, % (test concentration not listed). 300,000 compounds, 1.1% hits. AID 2216, 2009;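 active = most replicates above 15%; inconclusive = exactly half above 15%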;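 also: 0% = DMSO wells and 100% = Ran loaded with GDP instead of GTP; wells of about 40 µL received 100 nL stock; the first replicate is given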
HNF4A DNA FP: change in binding of human HNF4A to DNA, primary screen, biochemical, fluorescence polarization, FITC-DNA | Hepatocyte nuclear factor 4-alpha (Homo sapiens), P41235 | 1 h | activity change, % at 10 µM | 360,000 compounds, 0.3% hits; in the data active = activity change above about 30%, passing the limit was not always enough;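 also: controls were the assay level and a saturating level of protein; the project sought stronger binding though the title names inhibitors; some compounds called inactive have numbers as strong as hits; positive values seem to mean higher polarization but the record does not say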
Target sequence (P41235 whole entry, looked up): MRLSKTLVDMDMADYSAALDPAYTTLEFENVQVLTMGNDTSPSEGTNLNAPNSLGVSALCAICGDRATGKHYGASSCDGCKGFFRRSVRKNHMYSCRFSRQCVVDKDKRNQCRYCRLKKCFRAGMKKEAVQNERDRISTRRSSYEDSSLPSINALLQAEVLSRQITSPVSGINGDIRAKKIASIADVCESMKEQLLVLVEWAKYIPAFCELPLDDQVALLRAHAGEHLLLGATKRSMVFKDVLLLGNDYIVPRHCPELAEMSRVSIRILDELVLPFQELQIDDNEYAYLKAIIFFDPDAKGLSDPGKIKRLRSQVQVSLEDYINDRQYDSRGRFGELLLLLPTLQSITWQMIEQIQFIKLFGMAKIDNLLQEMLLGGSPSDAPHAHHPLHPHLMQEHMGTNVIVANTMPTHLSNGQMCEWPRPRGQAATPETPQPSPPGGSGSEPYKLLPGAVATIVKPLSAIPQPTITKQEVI
E coli growth: E. coli growth inhibition, primary screen, OD600; OD600 absorbance (no concentration beside the values); Escherichia coli growth, 23 h; stronger effect = lower value; AID 1053175, 2014; 330,000 compounds, 0.21% hits;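 active = OD600 absorbance below the run mean of sample wells minus 3.6 SD, in any replicate, cut at about 0.56 in these data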;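 also: stock transfer was 300 nL into about 60 µL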
MLL AF4-AF9 inh: inhibitors of AF4 peptide binding to AF9, primary screen, biochemical, AlphaScreen, biotin-AF4 peptide, FLAG-AF9, single point. Protein AF-9 (Homo sapiens), P42568. inhibition, % at 10 µM. 350,000 compounds, 0.47% hits;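 active = every replicate reaching a set inhibition limit, whatever the replicate mean, cut at about 25% in these data; inconclusive = mean inhibition reaches that limit but some replicates miss it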;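 also: 0% = plate neutral control median and 100% = total signal loss; the record names both 10 and 1 µM as test concentration; the first replicate is given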
UCH37 inh: inhibitors of human UCH37 deubiquitinase, primary screen, biochemical, Ub-AMC cleavage, fluorescence. purified proteasome/UCH37. inhibition, % (no concentration beside the values). 330,000 compounds, 0.33% hits. AID 588478, 2011;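 active = mean of two replicates above 20%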;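 also: 0% = compound-free wells with enzyme and 100% = wells lacking proteasome; stock transfer was 100 nL into about 20 µL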
Target sequence (Q9Y5K5 whole entry, looked up): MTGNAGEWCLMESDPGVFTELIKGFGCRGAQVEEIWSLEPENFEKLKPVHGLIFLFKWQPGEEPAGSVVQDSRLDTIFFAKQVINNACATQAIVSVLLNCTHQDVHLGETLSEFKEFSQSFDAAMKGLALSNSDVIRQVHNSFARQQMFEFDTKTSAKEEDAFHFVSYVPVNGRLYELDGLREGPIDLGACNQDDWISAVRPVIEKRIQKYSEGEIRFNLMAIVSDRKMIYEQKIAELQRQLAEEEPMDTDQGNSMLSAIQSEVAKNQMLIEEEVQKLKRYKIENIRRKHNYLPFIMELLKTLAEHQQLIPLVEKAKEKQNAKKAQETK
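Test system – human UCH37 enzyme supplied as purified proteasome complex · Incubation – 30 min preincubation with enzyme, 25 min cleavage at room temperature · Detection – AMC fluorescence from Ub-AMC cleavage, excitation 355 nm, emission 460 nm · Benchmarks – no-proteasome wells (full inhibition) and compound-free wells (no inhibition)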
FGF22 binding: binders of human FGF22 protein, primary screen, FGF22 synaptogenesis inhibitor project, biophysical, thermal shift, single point. Fibroblast growth factor 22 (Homo sapiens), Q9HCT0. recombinant FGF22 thermal shift, SYPRO orange fluorescence; percent of sucrose octasulfate shift, DMSO zero. calls only at 9.99 µM. 340,000 compounds, 1.5% hits. AID 651658, 2012;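 active = melting point raised past a set limit in the mean and every replicate; inconclusive = no clear call; three in four hits are not shown here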
Target sequence (Q9HCT0 whole entry, looked up): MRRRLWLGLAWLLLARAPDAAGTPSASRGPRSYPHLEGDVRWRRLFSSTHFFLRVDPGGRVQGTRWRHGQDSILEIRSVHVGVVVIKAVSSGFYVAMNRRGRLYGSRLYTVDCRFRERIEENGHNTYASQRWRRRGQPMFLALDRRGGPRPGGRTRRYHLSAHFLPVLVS
Vif TR-FRET: inhibitors of Vif binding to APOBEC3G peptide, primary screen, biochemical, TR-FRET, GST-Vif 1-94, biotin-A3G peptide, dose response retest (AID 1117319). Virion infectivity factor (Human immunodeficiency virus type 1 group M subtype B (isolate …. TR-FRET GST-Vif / biotin-A3G peptide binding; higher % means a stronger effect; test concentration not given here; strong numbers were not always called active. inhibition, %, or IC50 in µM where a hit was titrated. 260,000 compounds, 0.57% hits;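 active = above the screen mean plus three standard deviations and confirmed in dose response; inconclusive = results disagree or hit not tested in dose response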;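 also: Vif residues 1-94 fused to GST binding biotinylated APOBEC3G peptide 110-148; 0% = full assay without inhibitor and 100% = GST in place of GST-Vif; retest series ran down from 100 µM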
Active calls of the source: *; i = inactive; u = inconclusive; x = not tested or not shown; + = active, no number. These rows are one share of the data; rates above refer to the full screens.

SMILES	RanGTP-Impb inh	HNF4A DNA FP	E coli growth	MLL AF4-AF9 inh	UCH37 inh	FGF22 binding	Vif TR-FRET
CC1(C)C(CC2OCC(CN3CCCCC3)O2)[C@H]2CC[C@@H]1C2 (stereo not given in full)	0.9	2.5	0.65	-2.0	4.5	i	-20%
CC(C)C(NC(=O)c1ccccc1F)C(=O)NCc1ccc(F)cc1 (stereo not given)	4.4	-2.7	0.69	1.1	0.5	i	x
Cc1ccc(S(=O)(=O)N(CC(=O)N2CCOCC2)C2CCCCC2)cc1	0.8	0.8	0.66	x	1.0	x	3%
O=C(N/N=C/c1cccc(F)c1)c1ccc(Cl)cc1	-0.8	-1.0	x	-19	x	i	-5%
O=C(CCN1C(=O)C2CCCCC2C1=O)Nc1cc(F)ccc1F (stereo not given)	2.1	1.7	0.66	-3.0	-0.8	i	x
Clc1ccc(N2CCN(Cc3c[nH]c4ncccc34)CC2)cc1	x	4.0	0.7	0.9	1.5	i	x
COc1ccc(C(CNC(=O)COc2cc(C)ccc2Cl)N2CCCCC2)cc1 (stereo not given)	5.6	-0.1	0.64	0.8	2.3	i	-4%
COc1ccccc1OCc1ccc(C(=O)c2ccccc2)cc1	-0.2	-1.0	0.72	-6.8	1.1	i	x
Fc1ccc(NC(=S)N2CCc3ccccc3C2)c(F)c1	0.0	0.0	0.64	0.3	1.6	i	-3%
CN(CC(=O)N1CCN(c2cccc(Cl)c2)CC1)S(=O)(=O)c1cccs1	0.7	1.7	0.67	x	0.2	x	-6%
Cc1ccc(-c2nnn(CC(=O)N(c3ccccc3F)C(C(=O)NC3CCCC3)c3ccncc3)n2)o1 (stereo not given)	-3.1	-2.4	0.7	0.4	2.4	i	x
Cc1cc(NC(=O)CSc2nc3c(cc2C#N)CCCC3)no1	-2.3	0.4	0.68	x	-2.9	x	-21%
Cc1ccc(-c2nc3ccccc3o2)cc1NC(=S)NC(=O)/C=C/c1ccco1	-4.7	8.2	0.8	x	6.0	x	u
O=C(C1CC(=O)N(C2CCCC2)C1)N1CCN(c2ccc(F)cc2)CC1 (stereo not given)	0.8	3.7	0.77	4.9	3.4	i	x
Clc1cccc(CN2CCCCCCC2)c1Cl	-1.6	6.5	0.68	-18	1.6	i	x
CCOc1ccc(CCN2C(=S)N([C@@H](Cc3ccc(O)cc3)CN3CCC[C@@H]3CN3C(=S)NC[C@@H]3CC(C)C)C[C@@H]2CC(C)C)cc1	x	-2.3	x	3.9	x	i	x
Cc1ccc(C)c(OC2=NS(=O)(=O)c3ccccc32)c1	3.0	2.6	0.7	0.7	2.6	i	9%
CCN(CC)C(=O)CC(c1ccc(OC)cc1)c1c(O)cc(OC)cc1OC (stereo not given)	3.8	1.8	0.65	0.2	-0.9	i	9%
COCc1[nH]nc2c1C1(CCC3(CC1)OCCO3)C(C#N)=C(N)O2	-1.5	2.0	0.68	x	2.9	x	15%
CSc1nc(-c2ccc(Cl)cc2)nn1S(=O)(=O)c1ccc(Cl)cc1	2.8	2.0	0.81	x	2.3	x	1%

Reprinted at random: five records from the list
SMILES	RanGTP-Impb inh	HNF4A DNA FP	E coli growth	MLL AF4-AF9 inh	UCH37 inh	FGF22 binding	Vif TR-FRET
Cc1ccc(S(=O)(=O)N(CC(=O)N2CCOCC2)C2CCCCC2)cc1	0.8	0.8	0.66	x	1.0	x	3%
Fc1ccc(NC(=S)N2CCc3ccccc3C2)c(F)c1	0.0	0.0	0.64	0.3	1.6	i	-3%
Cc1ccc(-c2nnn(CC(=O)N(c3ccccc3F)C(C(=O)NC3CCCC3)c3ccncc3)n2)o1 (stereo not given)	-3.1	-2.4	0.7	0.4	2.4	i	x
COc1ccccc1OCc1ccc(C(=O)c2ccccc2)cc1	-0.2	-1.0	0.72	-6.8	1.1	i	x
Cc1ccc(C)c(OC2=NS(=O)(=O)c3ccccc32)c1	3.0	2.6	0.7	0.7	2.6	i	9%

Additional records follow:
SMILES	RanGTP-Impb inh	HNF4A DNA FP	E coli growth	MLL AF4-AF9 inh	UCH37 inh	FGF22 binding	Vif TR-FRET
Cc1ccc(NC(=O)COC(=O)CCc2nc3ccccc3c(=O)[nH]2)cc1Cl	-2.4	3.0	0.67	-3.1	2.4	i	x
COc1ccccc1NS(=O)(=O)c1cccc(NC(=O)c2ccc3ccccc3n2)c1	0.3	0.7	0.7	3.7	-1.8	i	-4%
CCN(CC)S(=O)(=O)c1cc(NC(=O)Cn2ncc(Cl)c(Cl)c2=O)ccc1C	-2.1	-21	0.69	-7.7	5.1	i	4%
Cc1cc(NC(=O)C(C)SCC(=O)Nc2ccc(Br)cc2Br)no1 (stereo not given)	3.8	-1.8	0.66	-0.9	0.0	i	-1%
O=S(=O)(NC1CCCCC1Nc1ccc(Cl)cc1)c1ccccc1 (stereo not given)	4.0	1.5	0.7	3.6	3.3	i	6%
Cc1ccc(C)c(NC(=O)CCc2nnc3ccc(N4CCCC4)nn23)c1	-2.4	3.7	0.69	-4.2	2.4	i	x
CSc1ccc(CNC(=O)c2c(C)noc2C)s1	1.8	-5.2	0.66	2.1	1.5	i	-5%
O=C1C=C(O)CC(c2ccc(Cl)cc2)C1 (stereo not given)	5.0	0.8	0.76	x	3.4	x	24%
c1csc(CN2CCOCC2)c1	u	4.0	0.68	-14	1.8	i	2%
O=C(Nc1ncc2c(n1)-c1ccccc1OC2)c1ccc(Cl)cc1	u	5.6	0.72	x	-169	x	28%
O=C1CN(C(=O)CN2C(=O)NC(c3ccccc3)(c3ccccc3)C2=O)c2ccccc2N1	x	-1.0	0.7	1.5	2.0	i	x
Cc1cccc(C(=O)N[C@H](C(=O)Nc2ccc(S(=O)(=O)NC3=NCCCCC3)cc2)C(C)C)c1	6.1	2.7	0.69	-2.6	5.0	i	-6%
Cc1cc2occ(CC(=O)NNC(=O)c3ccccc3F)c2cc1C	-2.2	3.3	0.71	3.0	3.9	i	x
COc1cc(CNCc2ccccn2)ccc1OCc1ccc(Cl)cc1Cl	0.8	-1.0	0.64	x	5.4	x	9%
O=C(O)CCc1nnc2n(Cc3ccc(F)cc3)c(=O)c3ccccc3n12	3.3	1.9	0.77	-0.3	5.4	i	7%
COc1cccc(/C=C/C(=O)c2ccc3c(c2)OCCO3)c1OC	0.0	-1.3	0.67	-20	3.6	i	-7%
Cc1oc2c(c1C(=O)NC(Cc1c[nH]c3ccccc13)C(=O)O)CCCC2 (stereo not given)	-0.3	-1.9	0.72	x	4.2	x	u
Cc1ccccc1CNc1ncnc2cc(Cl)ccc12	1.5	-1.4	0.7	-2.6	-34	i	-316%
O=C(c1ccccc1)C1CCN(C(=O)c2ccco2)CC1	-16	6.3	0.63	-0.6	0.4	i	1%
COc1cccc(-n2c(Cc3cc(=O)[nH]c(=O)[nH]3)nnc2SCC(=O)N2CCC(C)CC2)c1	3.0	-1.1	x	x	x	x	-3%
COc1ccc(NS(=O)(=O)c2ccc3c(c2)[C@H]2C=CC[C@H]2[C@@H](c2ccc(C(=O)O)cc2)N3)cc1	7.3	-48	x	17	x	x	x
Cc1ccc(NC(=O)CSCC(=O)N2CCN(Cc3ccc4c(c3)OCO4)CC2)cc1	-0.3	-2.3	0.73	-0.2	3.4	i	x
CCN(CCNC(=O)CCCn1nc(C)n2c(cc3sccc32)c1=O)c1ccccc1	u	0.9	0.77	-1.5	3.4	i	-3%
Cc1cccc(C(=O)OC(C)CN2CCOCC2)c1 (stereo not given)	4.0	3.8	0.71	-1.9	-0.9	i	0%
CC1(C)C2CC[C@]3(C)C(CC=C4[C@@H]5C[C@@](C)(CO)[C@@H](O)C[C@]56C[C@@H](OC6=O)[C@]43C)[C@@]2(C)CC[C@@H]1O (stereo not given in full)	11	5.9	0.72	-2.4	2.8	i	x
COc1nc(N)c(C#N)c(-c2ccc(N(C)CCC#N)cc2)c1C#N	5.3	0.4	0.66	-3.5	-162	i	-251%
CCOc1ccc(N2C(=O)CC(NCCc3ccc(S(N)(=O)=O)cc3)C2=O)cc1 (stereo not given)	4.6	-1.9	0.78	x	-4.7	x	-3%
O=C(NCc1ccc2c(c1)OCO2)c1ccc(-n2cnnn2)cc1	-2.4	-6.4	0.63	-2.1	1.9	i	19%
O=C(Cc1c[nH]c2ccccc12)NC1(C(=O)NC2CCCCC2)CCCCC1	7.0	2.9	0.61	x	1.4	x	-9%
O=C(Nc1nc(-c2cc(F)ccc2F)cs1)c1ccccn1	1.4	4.5	0.7	-4.9	2.7	i	x
COc1cc(OC)cc(C(=O)NCC(=O)NCc2ccccn2)c1	x	0.8	0.68	1.6	1.4	i	x
COc1ccccc1CC(=O)NC1CCN(Cc2ccccc2)CC1	4.4	-2.0	0.68	-1.1	-0.6	i	0%
COc1ccccc1NC(=O)Cn1nnc(-c2ccccc2NC(=O)c2cccs2)n1	u	0.3	0.79	x	-1.3	x	2%
O=C(Nc1cccc(Cl)c1)c1cc(S(=O)(=O)N2CCOCC2)cs1	-5.3	3.3	0.69	-1.8	5.7	i	x
Cc1cc(C)cc(N(CC(=O)NC2CCCCC2)C(=O)c2ccc(C)s2)c1	0.6	0.3	0.67	x	4.8	x	-5%
Cc1ccc(Sc2c(C(=O)Nc3ccc(F)cc3F)c(C(F)(F)F)nn2C)cc1	0.4	4.6	0.69	x	5.7	x	33%
COc1ccc(CCN2CC(C(=O)NCCCn3nc(C)cc3C)CCC2=O)cc1 (stereo not given)	3.6	5.2	0.66	-1.5	1.5	i	-3%
COc1ccc(CCN2C(=O)c3ccccc3C2(O)c2ncc[nH]2)cc1OC (stereo not given)	4.5	-0.8	0.69	x	1.0	x	-1%
CCOC(=O)c1[nH]c2ccccc2c1NC(=O)C1CCCCC1	-3.4	4.1	0.64	x	-8.0	x	14%
CC(=O)c1cn(CC(=O)Nc2ccc(C)c(C)c2)c2ccccc12	2.7	3.0	0.71	-1.6	3.0	x	-9%
O=C(c1ccco1)N1CCN(C(=O)C(c2ccccc2)c2ccccc2)CC1	-2.9	1.5	0.68	x	1.8	x	-4%
Cn1c(N)c(Sc2ccccc2[N+](=O)[O-])c(=O)n(C)c1=O	-1.0	-0.8	0.64	-3.7	4.8	i	x
Clc1ccccc1OCCNc1nc(NCC2CC2)nc2ccsc12	x	2.9	x	-0.5	x	i	x
CCOC(=O)c1c(-c2ccc(OC)cc2)csc1NC(=O)COc1ccc2c(C)cc(=O)oc2c1	2.4	4.8	0.74	3.2	1.5	i	x
COC(=O)[C@@]12C[C@@H](CC(=O)NCC34CC5CC(CC(C5)C3)C4)C(=O)N(Cc3ccccc3)C1=CCC(C)(C)C2	x	2.1	x	-1.0	x	i	x
O=C(NCC(=O)N1CCOCC1)c1ccccc1	7.2	0.8	0.65	-0.3	1.8	i	x
CCOc1cc(C)nc(NCc2ccccc2)n1	7.0	0.1	0.65	x	1.2	x	0%
Cc1ccc(C)c(NC(=O)c2ncn[nH]2)c1	-1.7	0.7	0.71	x	0.6	x	1%
CCOc1ccc(NC(=O)CSc2nnc(-c3ccccn3)n2C)cc1	1.7	2.1	0.69	x	3.3	x	-8%
CCN(CC)C(=O)c1cccc(-c2csc(C(O)c3ccc(F)c(OC)c3)n2)c1 (stereo not given)	x	-6.0	x	2.3	x	i	x
Oc1ccc(Cl)cc1Sc1cc(Cl)ccc1O	x	-4.7	x	-0.7	x	+	x
